Screening results: PubChem BioAssay, several laboratories
Autofluor counter: flagged as autofluorescent in microsphere protease counterscreen; compound autofluorescence counterscreen, microsphere flow cytometry; active compounds read high; fluorescence intensity (concentration not given with the values); 360,000 tested, 3.1% active; AID 624483;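 active = at least 3 SD above the mean of all compounds, about 16000 in these data; inconclusive = too few beads counted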;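 note: 100 nL of 1 mM stock went into each well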
Mtb hypoxia inh: reduces hypoxia-regulated biosensor signal in M. tuberculosis; M. tuberculosis hypoxia-regulated fluorescent reporter, fluorescence; fluorescence inhibition, % (test concentration not listed); 300,000 tested, 0.1% active;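 active = 35 to 45% if threefold the growth effect, above 45% if 1.5-fold the growth effect; inactive = the rest, general growth blockers included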;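 note: wells of about 50 µL received 100 nL stock; 0% = vehicle wells and 100% = reference inhibitor wells; whole bacteria with a GFP reporter of the hypoxia response; strong numbers were not always called active; many hits fall short of the cut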
PrP 5UTR inh: inhibition of PrP 5' UTR reporter expression; cell-based PrP 5' UTR mRNA reporter, plate reader; inhibition, % (no concentration beside the values); 340,000 tested, 0.35% active; AID 488862;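 active = every replicate at 50% or more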;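 note: 0 = median of the neutral control wells; tested in H4 reporter cells; numbers are from one replicate; inactives centre near -14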
BJeLR viability: kills HRASV12-expressing BJeLR cells. BJeLR (HRASV12) viability, CellTiter-Glo ATP luminescence, 48 h; reference of the scale not given here. inhibition, % (concentration not given with the values). 300,000 tested, 0.17% active;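 active = replicate mean above 50%; inconclusive = above 50% but judged a plate artefact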;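 note: 50 nL library stock added to about 25 µL; numbers are from one replicate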
RN4220 kill: kills Staphylococcus aureus RN4220; 330,000 tested, 0.33% active; S. aureus RN4220 growth, OD600, 16 h; AID 1259311; inhibition, % (concentration not given with the values);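 active = z-score of -3 or lower and OD600 up to 0.18 on both plates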;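 note: plate controls were untreated cells for no effect and reference antibiotic for full effect; stock transfer was 100 nL into about 80 µL; one replicate is shown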
ugtP null kill: compounds lethal to S. aureus RN4220 ugtP deletion mutant; OD600 growth, 16 h; some inactives read as strong as hits; growth inhibition, % (no concentration beside the values); 330,000 tested, 0.54% active; AID 1259309;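 active = z-score under -3 and OD600 up to 0.15 on both plates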;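 note: plate controls were untreated wells for no effect and antibiotic for full effect; wells of about 80 µL received 100 nL stock; the first replicate is given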
Mtb hypoxia inh growth: further read-out of Mtb hypoxia inh, marked with its call; growth inhibition, %; measured here: M. tuberculosis growth (absorbance);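 0% = vehicle and 100% = reference antibiotic; read after six days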
* hit, by the source's call; ? = inconclusive; · = no result given; & = joins results of further samples.

1) O=C(CNS(=O)(=O)c1c(Cl)cccc1Cl)OCC(=O)c1ccc[nH]1
2) CCOC(=O)c1oc2ccc(S(=O)(=O)N3CCOCC3)cc2c1C
3) Cc1cccc(NC(=O)c2cc(=O)[nH]c3ccccc23)c1
4) O=C(NCc1ccc2c(c1)OCO2)C1CC(=O)N(C2CCCCCC2)C1 (stereo not drawn)
5) Cc1noc(C)c1COc1ccccc1C(=O)N(C)CC(=O)Nc1ccc(F)cc1
6) CCCC(=O)Nc1sc(C)c(C)c1C#N
7) CCOC(=O)N1CCC(N2CCCC(CO)(Cc3cccc(Cl)c3)C2)CC1 (stereo not drawn)
8) CCCOC(=O)c1c(NC(=O)C2CCCO2)sc(C(=O)OC)c1C (stereo not drawn)
9) COc1ccc(/C=N/NC(=O)C(=O)NCc2cccnc2)cc1
10) CN(CCOc1ccc(Cl)cc1)Cc1cccc(S(=O)(=O)N(C)C)c1

assay / compound	1	2	3	4	5	6	7	8	9	10
Autofluor counter	3534	16344*	3712	9769	4978	4543	12454	7717	2477	3297
Mtb hypoxia inh growth	5	3	2	-1	2	2	5	9	·	-7
ugtP null kill	2	4	5	1	1	7	4	18	·	6
BJeLR viability	9	-6	-3	2	-1	-9	-4	-1	2	5
PrP 5UTR inh	-14	-19	-8	-40	-12	-11	-26	-19	-20	-15
RN4220 kill	5.5	3.7	4.8	1.0	1.2	9.6	11	6.4	·	2.5
Mtb hypoxia inh	5	6	5	0	4	3	3	15	·	4

11) COc1cc(C(=O)NCc2cn3ccccc3n2)cc(OC)c1OC
12) Cc1ccc(-c2nn(-c3ccccc3)cc2C2CC(c3ccccc3)=NN2C(=O)CCC(=O)O)cc1 (stereo not drawn)
13) Cc1cc(-c2n[nH]c(=S)n2N=Cc2cccc(O)c2)n[nH]1
14) CCN(CC)CCNC(=O)c1ccc(NC(=O)COc2ccc3c(c2)CCC3)cc1
15) O=C(NN=Cc1ccc(Cl)cc1)c1ccc2c(c1)OCO2
16) Cn1nnc(NC(=S)NC(=O)c2ccc(-c3ccc(Br)cc3)o2)n1
17) O=C1C2C3C=CC(CC3)C2C(=O)N1c1ccccc1[N+](=O)[O-] (stereo not drawn)
18) CC(=C/c1ccccc1)/C=N/NC(=O)c1ccc2nc[nH]c2c1
19) CCC(=O)Nc1ccc(C(=O)OCC(=O)c2cccs2)cc1
20) CC(OC(=O)CCC1CCCC1)C(=O)Nc1ccccc1[N+](=O)[O-] (stereo not drawn)

assay / compound	11	12	13	14	15	16	17	18	19	20
Autofluor counter	7906	2238	·	6714	·	4330	4752	1974	3982	4992
Mtb hypoxia inh growth	-2	1	2	-2	-9	6	9	·	-1	9
ugtP null kill	-3	3	4	3	1	5	3	·	4	-2
BJeLR viability	-8	-2	·	·	·	2	-4	-13	-8	-2
PrP 5UTR inh	5	-17	·	-4	·	-24	-17	-17	-20	-2
RN4220 kill	2.8	11	3.9	-1.2	1.5	1.9	6.8	·	3.4	8.6
Mtb hypoxia inh	5	8	17	-3	-6	-1	11	·	9	13

21) O=C(CN1CCOCC1)Nc1ccc(Cl)cn1
22) COc1ccc(C=NN2C(=O)c3ccccc3C2=O)cc1
23) CCOP(=S)(OCC)N1CCOCCOCCN(P(=S)(OCC)OCC)CCOCCOCC1
24) CCOC(=O)C1=C(C(=O)OCC)N(Cc2ccccc2)CCC1=O
25) CCc1cccc(NC(=O)C(NC(=O)C2CCCCC2)C(C)C)c1 (stereo not drawn)
26) CCCCOc1ccc(C(=O)CCN2CCCCC2)cc1
27) COc1ccc(NC(=O)COC(=O)CNC(=O)C2CCCCC2)cc1
28) CC1CN(S(=O)(=O)c2cccc(C(=O)OC/C(O)=C(\C#N)c3nc4ccccc4[nH]3)c2)CC(C)O1 (stereo not drawn)
29) Cc1ccc(C=NN=C2SCC(=O)N2CC2CC2)cc1
30) Fc1ccc(-c2nnc(SCc3cccnc3)o2)cc1

assay / compound	21	22	23	24	25	26	27	28	29	30
Autofluor counter	?	·	4136	3895	5031	5425	5415	2219	·	3892
Mtb hypoxia inh growth	2	1	0	-2	-5	11	2	0	7	·
ugtP null kill	0	2	1	11	10	3	10	-4	18	0
BJeLR viability	15	·	11	·	2	1	11	-6	·	7
PrP 5UTR inh	-40	·	-16	-10	6	-4	-1	2	·	-50
RN4220 kill	-0.1	1.4	3.5	2.0	2.0	7.7	5.1	0.5	6.9	9.0
Mtb hypoxia inh	2	7	0	0	13	8	-1	-2	12	·

Whole records, quoted from the list:
CCCC(=O)Nc1sc(C)c(C)c1C#N in the list: Autofluor counter: 4543; Mtb hypoxia inh growth: 2; ugtP null kill: 7; BJeLR viability: -9; PrP 5UTR inh: -11; RN4220 kill: 9.6; Mtb hypoxia inh: 3
CCCOC(=O)c1c(NC(=O)C2CCCO2)sc(C(=O)OC)c1C (stereo not drawn) in the list: Autofluor counter: 7717; Mtb hypoxia inh growth: 9; ugtP null kill: 18; BJeLR viability: -1; PrP 5UTR inh: -19; RN4220 kill: 6.4; Mtb hypoxia inh: 15
Cc1ccc(C=NN=C2SCC(=O)N2CC2CC2)cc1 in the list: Autofluor counter: ·; Mtb hypoxia inh growth: 7; ugtP null kill: 18; BJeLR viability: ·; PrP 5UTR inh: ·; RN4220 kill: 6.9; Mtb hypoxia inh: 12

(further entries)
31) Cc1cc(C)c2oc(=O)cc(CN3CCC(C)CC3)c2c1
32) Nc1c(Br)cc2oc(-c3ccccc3)nc2c1Br
33) OC1(c2ccc(Cl)cc2)CCN(Cc2nc(-c3cnccn3)no2)CC1
34) COc1ccc(N(C(=O)CNC(=O)c2ccco2)C(C(=O)NCC2CCCO2)c2ccc(OC)c(OC)c2)cc1 (stereo not drawn)
35) O=C1CC(=O)N2CCSC2=N1
36) Oc1ccc(C=Nc2ccccc2-c2nc3ccccc3[nH]2)c(O)c1
37) CCOC(=O)c1c(C)nc2ccccn12
38) NC(=O)CC(NC(=O)Cc1cccc2ccccc12)c1ccc(NC2CCCCCC2)c([N+](=O)[O-])c1 (stereo not drawn)
39) COc1ccccc1OCc1n[nH]c(=S)n1Cc1ccccc1
40) CCOc1ccccc1NC(=O)c1cc(-c2ccncc2)nc2c(Cl)cccc12

assay / compound	31	32	33	34	35	36	37	38	39	40
Autofluor counter	4628	2618	4189	3573	3554	2444	11373	3018	3709	4056
Mtb hypoxia inh growth	9	1	6	10	8	4	1	13	-2	8
ugtP null kill	16	-16	6	18	-1	15	-1	0	-2	5
BJeLR viability	3	-2	4	-1	·	5	-1	-11	-6	4
PrP 5UTR inh	8	-127	-15	-3	-14	-85	8	-1	-19	2
RN4220 kill	4.7	4.1	7.0	-1.1	2.6	9.7	-1.2	-4.9	5.5	-2.7
Mtb hypoxia inh	6	6	9	-1	-1	2	-4	10	-1	-5

41) CCOC(=O)Cn1c(=O)c2c(nc(N3CCOCC3)n2C)n(C)c1=O
42) C=CCOc1c(CNc2ccc3[nH]c(=O)[nH]c3c2)cccc1OC
43) C=CCN1C(=O)/C(=C2/Sc3ccccc3N2C)SC1=Nc1c(C)n[nH]c1C
44) CCCc1cc(C(N)=O)c(NC(=O)c2cc(C)on2)s1
45) CCN1CCN(C(=O)C2CCC(=O)N(Cc3cccc(C(F)(F)F)c3)C2)CC1 (stereo not drawn)
46) NC(=O)c1ccccc1NC(=O)CN1CCCCCC1
47) CC1(CC(=O)NNC(=O)Nc2ccccc2)OCCCO1
48) COc1ccc2[nH]c(=O)c(CN(C(=O)c3ccccn3)c3ccccc3)cc2c1
49) CC(C)OP(=O)(OC(C)C)C(O)c1ccc(Br)cc1 (stereo not drawn)
50) CCc1ccc(/C(C)=N/NS(=O)(=O)c2ccc(OC)cc2)s1

assay / compound	41	42	43	44	45	46	47	48	49	50
Autofluor counter	7258	4424	2916	16687*	6232	5403	3347	2467	1990	4993
Mtb hypoxia inh growth	3	12	·	1	1	3	9	·	0	·
ugtP null kill	9	6	·	-6	3	9	12	-10	-6	·
BJeLR viability	-2	8	-2	-4	-5	-6	2	9	-8	2
PrP 5UTR inh	-28	8	-17	-21	-9	-21	-21	-29	-9	-4
RN4220 kill	6.4	2.7	·	6.2	3.0	1.6	7.1	0.7	8.5	·
Mtb hypoxia inh	5	-1	·	4	3	11	-2	·	2	·

51) Nc1nnc(SCC(=O)NC23CC4CC(CC(C4)C2)C3)s1
52) O=C(Nc1ccccc1Sc1ccccc1)c1ccc(F)cc1
53) CC(C)(C)c1nnc(N/N=C/c2ccccc2O)n(N)c1=O
54) COc1ccc(S(=O)(=O)N2CCN(C(=O)c3ccc(NC(C)=O)cc3)CC2)cc1
55) C=CCn1c(SCC(=O)N2CCOCC2)nnc1C(C)NC(=O)c1ccccc1 (stereo not drawn)
56) Cn1cnc2nc(Cl)nc(Cl)c21
57) COc1ccc(-c2cc(C(=O)Nc3cc(S(N)(=O)=O)ccc3C)c3ccccc3n2)cc1OC
58) O=S(=O)(NCC(c1ccco1)N1CCN(c2ccccc2F)CC1)c1ccc(F)cc1 (stereo not drawn)
59) O=S(=O)(c1ccc2c(c1)OCCO2)N1CCc2ccccc21
60) COc1cc(NC(=S)NCC2CCCO2)c(OC)cc1Cl (stereo not drawn)

assay / compound	51	52	53	54	55	56	57	58	59	60
Autofluor counter	21047*	2453	10982	4119	4127	4219	3263	2668	2630	2196
Mtb hypoxia inh growth	7	6	·	9	0	8	3	-2	5	-7
ugtP null kill	-3	31	·	1	7	2	-3	2	6	16
BJeLR viability	-7	-1	62*	·	1	·	-13	-9	-2	-3
PrP 5UTR inh	-17	-27	30	-5	-10	-15	-14	-1	-13	-15
RN4220 kill	5.5	0.3	·	1.0	3.2	3.7	6.5	2.2	12	5.6
Mtb hypoxia inh	12	9	·	-8	6	9	-11	1	4	15

61) O=C(Cn1ccc2ccccc2c1=O)NCC1COc2ccccc2O1 (stereo not drawn)
62) O=C1CC(c2ccccc2)C(C(=O)O)N1 (stereo not drawn)
63) CCn1c(C(c2ccccc2)c2ccccc2)n[nH]c1=S
64) Nc1ncnc2c1ncn2[C@@H]1O[C@H](CNCc2ccc(-c3cc(C(F)(F)F)ccc3Cl)o2)[C@@H](O)[C@H]1O
65) COc1cc(NC(=O)c2ccccc2[N+](=O)[O-])c(C(=O)O)cc1OC
66) COc1ccc2oc(=O)c(C(=O)N3CCN(C(=O)c4ccco4)CC3)cc2c1
67) COc1ccc(C2CC(=O)C(C=NCCO)=C(O)C2)cc1 (stereo not drawn)
68) O=C(NCc1ccc2c(c1)OCO2)c1cccc(S(=O)(=O)N2CCCC2)c1
69) CC1CCC[C@@]2(O1)OC(CCO)CC(O)C2O (stereo partly drawn)
70) CCOC(=O)C(C(=O)OCC)[C@@H]1CS(=O)(=O)C[C@H]1C(C(=O)OCC)C(=O)OCC

assay / compound	61	62	63	64	65	66	67	68	69	70
Autofluor counter	3955	5426	2347	3525	4671	3764	10837	5664	·	5940
Mtb hypoxia inh growth	10	·	·	6	-8	3	-2	-13	4&-2&10&4&4&5&7&10	·
ugtP null kill	2	1	-3	-4	6	4	11	1	2&-4&-1&3&-4&10&-2&3	-8
BJeLR viability	2	4	3	·	4	-9	4	-3	·	-1
PrP 5UTR inh	-17	-16	-27	-14	-30	-10	2	-10	·	11
RN4220 kill	2.5	1.3	4.9	-1.6	7.2	1.3	5.1	-0.2	4.1&4.4&2.7&2.4&6.2&1.1&4.5&3.2	-3.3
Mtb hypoxia inh	7	·	·	-6	-4	-5	3	12	3&9&3&13&6&9&9&11	·

71) COc1cc(C2C(C(=O)c3ccc(C)o3)=C(O)C(=O)N2c2cc(C)on2)ccc1O (stereo not drawn)
72) O=C(O)c1cc(C(F)(F)F)nc2c(C(F)(F)F)cccc12
73) O=C(NCc1ccccc1)N(Cc1cc2cc3c(cc2[nH]c1=O)OCO3)CC1CCCO1 (stereo not drawn)
74) CCOc1ccccc1NC(=O)CSc1nnc(-c2cnccn2)n1CC
75) CC(=O)c1cc2c(cc1NC(=O)CN1CCN(c3cccc(C(F)(F)F)c3)CC1)OCO2

assay / compound	71	72	73	74	75
Autofluor counter	2542	3996	?	3308	6397
Mtb hypoxia inh growth	13	8	5	5	4
ugtP null kill	0	1	0	8	3
BJeLR viability	1	13	8	3	-4
PrP 5UTR inh	-16	-1	-6	-3	-28
RN4220 kill	6.6	9.5	-2.9	7.3	1.4
Mtb hypoxia inh	-1	5	17	5	9
